# From PubChem
# VDR inhibitor – Inhibitors of the vitamin D receptor (VDR): qHTS; VDR-SRC2-3 peptide fluorescence polarization, 2 h; Vitamin D3 receptor (Homo sapiens), P11473; 400,000 compounds, 0.93% hits; Potency, µM, for inactives: max response, negative = inhibition, most hits filed as inhibitors; active = well fitted inhibition curve with a large enough effect; inconclusive = small, poorly fitted or top-dose-only effect, or another doubt; inactive = no such curve, though single readings can be large or run the other way; also: series mostly up to about 120 µM
# Target sequence (P11473 whole entry, looked up): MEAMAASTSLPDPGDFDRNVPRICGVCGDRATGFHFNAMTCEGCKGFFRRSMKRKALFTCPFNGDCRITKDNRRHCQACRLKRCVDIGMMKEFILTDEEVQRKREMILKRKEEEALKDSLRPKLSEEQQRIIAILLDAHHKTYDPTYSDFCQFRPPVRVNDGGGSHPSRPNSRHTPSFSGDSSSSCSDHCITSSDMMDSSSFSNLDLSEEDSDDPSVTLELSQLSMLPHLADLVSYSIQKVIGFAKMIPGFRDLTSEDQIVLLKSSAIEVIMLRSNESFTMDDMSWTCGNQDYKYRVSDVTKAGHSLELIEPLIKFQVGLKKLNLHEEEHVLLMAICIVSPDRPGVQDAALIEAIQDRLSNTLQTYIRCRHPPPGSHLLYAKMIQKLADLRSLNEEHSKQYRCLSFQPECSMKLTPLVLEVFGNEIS
#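 VDR–SRC2-3 interaction, FP format. Cmpds 23 nl via pintool, brief spin, 2 h ambient incubation.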
# * = called active by the depositor; ? = inconclusive; & = joins results of further samples; [ ] = another dose, or the depositor's remark. % is scaled to controls: 0 for no effect and ±100 for the full control effect; potency is read from the fitted curve at half-maximal effect. These rows are one share of the data. The share of hits here may be higher or lower than overall.
SMILES,VDR inhibitor
CC1(c2ccc3ccccc3c2)NC(=O)N(CC(=O)N2CCN(S(=O)(=O)c3ccccc3F)CC2)C1=O (stereo not drawn),-1%
Cc1cccn2c(=O)c3cc(C(=O)NCc4cccnc4)c(=N)n(CCCO)c3nc12,0%
O=C(NCCS(=O)(=O)NCc1cccnc1)c1ccccc1,7%
CC(C)NC(=O)C1CCCN(c2nnc(-n3cccc3)s2)C1 (stereo not drawn),4%
Cc1ccccc1-c1cc2nc(C)c(Cl)c(=O)n2[nH]1,-1%
O=C(NCCN1CCN(C(=O)Nc2ccccc2)CC1)Nc1ccccc1,-6%
Cc1ccc(S(=O)(=O)N2[C@@H](c3cccc(Cl)c3)C(C(=O)O)=CC[C@H]2c2cccs2)cc1,-8%
O=C(c1ccco1)N1CCN(S(=O)(=O)c2ccc(Oc3ccccc3)cc2)CC1,-3%
COC(=O)C(Cc1ccc(OC(=O)c2ccccc2Cl)cc1)N1Cc2ccccc2C1=O (stereo not drawn),29%
C=CCNC(=S)NNC(=O)c1csc(C)c1CC,6%
COn1c(SCc2cccc(Cl)c2)nc2ccccc2c1=O,3%
COc1ccc(OC)c(NC(=O)c2cc3cccc(OC)c3oc2=O)c1,-6%
CCCCC(=O)Nc1nn(CC)c2nc3c(C)cccc3cc12,-1%
Nc1ccccc1NC(=O)c1ccccc1,-7%
O=C(COC(=O)c1ccccc1C(=O)c1ccc(Cl)c([N+](=O)[O-])c1)NC1CCCCCC1,4%
CCN(CC)S(=O)(=O)c1cccc(C(=O)NCC(c2ccccc2)N(C)C)c1 (stereo not drawn),-2%
COc1ccc(Cn2ccc3nc(C)c(C(=O)N4CCN(c5cccc(OC)c5)CC4)cc3c2=O)cc1,1%
CC(C)(C)OC(=O)C[C@H]1C/C=C\C[C@@H](CC(=O)N[C@@H](CO)Cc2ccccc2)C(=O)N2CCC[C@H]2COC1=O,-13%
CCOc1ccc(NC(=O)CC2C(=O)N(c3ccc(C)cc3)C(=O)N2C2CCCCC2)cc1 (stereo not drawn),-6%
NC(=O)C1CCCN(C(=O)c2ccc(Cl)cc2)C1 (stereo not drawn),12%
O=C(O)CCc1ccc(-c2ccccc2)o1,20µM*
CCNC(=O)c1ccc(N(C)S(=O)(=O)c2cccs2)cc1,-9%
CN1C(=O)CC(c2ccco2)Sc2ccccc21 (stereo not drawn),20%
NNC(=O)c1cc2cc(Oc3ccccc3)ccc2[nH]1,?
COc1ccc(-c2ccc(CCC(=O)O)n2CC(=O)Nc2cccc(OC)c2)cc1,4%
Cc1nnc(SCC(=O)c2ccc(Cl)cc2)s1,16%
Cn1ccs/c1=N\C(=O)Nc1cccc(Cl)c1,3%
CCOC(=O)C(=NCCCN1CCOCC1)NNc1cccc(C(F)(F)F)c1,-11%
C=CCNCCCCOc1ccc(OCC)cc1,-8%
CCc1nc(SCC(=O)O)c2c3c(sc2n1)COC(C)(C)C3,-13%
CCNC(=O)CC1C(=O)N(c2ccc(F)cc2)C(=O)N1Cc1ccccn1 (stereo not drawn),?
Oc1ccc(/C=N/Nc2cccc(Cl)n2)c(O)c1,-26%
Oc1cccnc1Sc1cccc(C(F)(F)F)c1,-17%
CCCCN(CC)CCCNC(=O)c1ccc(CSc2nc3ccncc3[nH]2)cc1,-11%
COc1ccc(Cc2nnc(NC(=O)C3CCN(C(=O)c4ccco4)CC3)s2)cc1,-10%
c1ccc(NCC2OCc3ccccc3CO2)cc1,-4%
N#Cc1cc([N+](=O)[O-])ccc1NCC1CCCO1 (stereo not drawn),14%
CC(=O)c1sc(NC(=O)c2c(F)cccc2F)nc1C,-14%
COc1ccc2c(c1)c1c3n2CCN(C)C3=NCC1,-3%&5%
Cc1nn(C)c(C)c1NS(=O)(=O)c1ccccc1,2%
COC(=O)c1ccc(N(CC(=O)NCC2CCCO2)C(=O)CCC(=O)Nc2cc(C)on2)cc1 (stereo not drawn),-13%
O=C(O)CCCN1C(=O)C2C3CC(C2C1=O)C1C(c2ccccc2)c2sc(=O)n(-c4ccccc4)c2SC31 (stereo not drawn),-8%
COC(=O)CC1(C(=O)OC)Oc2ccc(Br)cc2C(=O)N1c1cc(Cl)c(Cl)cc1Cl (stereo not drawn),6%
Cc1ccc(S(=O)(=O)NCCC(=O)NCC(c2cccs2)N2CCOCC2)cc1 (stereo not drawn),0%
Fc1ccccc1Oc1nc(-c2ccncc2)nc2ccccc12,-19%
COc1ccc(C(=O)C[n+]2cccc(C)c2)cc1,2%
CC(C)CCOP(=O)(c1ccc(N(C)C)cc1)C(O)c1ccc(N(C)C)cc1 (stereo not drawn),6%
COc1ccc(CN2C(=O)c3oc4ccccc4c(=O)c3C2c2ccc(O)c(OC)c2)cc1 (stereo not drawn),16%&10%
CCOC(=O)c1c(CSc2ccsc2)n(C)c2cc(Br)c(O)c(CN(C)C)c12,?
O=C(NCC(c1cccnc1)N1CCOCC1)c1cccc(Cl)c1 (stereo not drawn),28%
O=C(NCc1n[nH]c(=S)n1-c1ccc(F)cc1)c1ccc(S(=O)(=O)N2CCOCC2)cc1,-21%
Cn1c(=O)n(CC(=O)NCC2CCCO2)c(=O)c2c3c(sc21)CCCC3 (stereo not drawn),-3%
O=C(N/N=C/c1c(-c2ccccc2)[nH]c2ccccc12)c1cccnc1,-6%
COc1cccc(C(=O)Oc2ccc3ccc(O)cc3c2)c1,-5%
Cc1ccc(C(=O)CSc2n[nH]c(C)n2)cc1,?
COc1ccccc1OCCn1c(NC(=O)c2ccc(Cl)cc2)nc2ccccc21,-4%
CN(C)CCNC(=O)c1cc2c(=O)n(C)c3ccccc3c2n1C,-14%
O=C(NCCN1CCCC1)c1ccc(Cl)cc1,2%
COc1cc2c(c(OC)c1)C(c1cc(OC)c(OC)c(OC)c1)CC(=O)N2 (stereo not drawn),-3%
O=C(NN=C1CCCC1)c1[nH]c2ccc(Br)cc2c1-c1ccccc1,-23%

# 18 consecutive entries already listed:
SMILES,VDR inhibitor
Cc1nn(C)c(C)c1NS(=O)(=O)c1ccccc1,2%
COC(=O)c1ccc(N(CC(=O)NCC2CCCO2)C(=O)CCC(=O)Nc2cc(C)on2)cc1 (stereo not drawn),-13%
O=C(O)CCCN1C(=O)C2C3CC(C2C1=O)C1C(c2ccccc2)c2sc(=O)n(-c4ccccc4)c2SC31 (stereo not drawn),-8%
COC(=O)CC1(C(=O)OC)Oc2ccc(Br)cc2C(=O)N1c1cc(Cl)c(Cl)cc1Cl (stereo not drawn),6%
Cc1ccc(S(=O)(=O)NCCC(=O)NCC(c2cccs2)N2CCOCC2)cc1 (stereo not drawn),0%
Fc1ccccc1Oc1nc(-c2ccncc2)nc2ccccc12,-19%
COc1ccc(C(=O)C[n+]2cccc(C)c2)cc1,2%
CC(C)CCOP(=O)(c1ccc(N(C)C)cc1)C(O)c1ccc(N(C)C)cc1 (stereo not drawn),6%
COc1ccc(CN2C(=O)c3oc4ccccc4c(=O)c3C2c2ccc(O)c(OC)c2)cc1 (stereo not drawn),16%&10%
CCOC(=O)c1c(CSc2ccsc2)n(C)c2cc(Br)c(O)c(CN(C)C)c12,?
O=C(NCC(c1cccnc1)N1CCOCC1)c1cccc(Cl)c1 (stereo not drawn),28%
O=C(NCc1n[nH]c(=S)n1-c1ccc(F)cc1)c1ccc(S(=O)(=O)N2CCOCC2)cc1,-21%
Cn1c(=O)n(CC(=O)NCC2CCCO2)c(=O)c2c3c(sc21)CCCC3 (stereo not drawn),-3%
O=C(N/N=C/c1c(-c2ccccc2)[nH]c2ccccc12)c1cccnc1,-6%
COc1cccc(C(=O)Oc2ccc3ccc(O)cc3c2)c1,-5%
Cc1ccc(C(=O)CSc2n[nH]c(C)n2)cc1,?
COc1ccccc1OCCn1c(NC(=O)c2ccc(Cl)cc2)nc2ccccc21,-4%
CN(C)CCNC(=O)c1cc2c(=O)n(C)c3ccccc3c2n1C,-14%

# Later entries:
SMILES,VDR inhibitor
Cc1cc(C)c(NC(=O)Cn2c(=O)n(CCC(=O)NCc3ccccc3Cl)c(=O)c3sccc32)c(C)c1,1%
Cc1cc(/C=C2\NC(=O)N(Cc3ccc(Cl)cc3)C2=O)c(C)n1C,-12%
CCOC(CCNC(=O)c1cn(C)c(=O)c2c1c1ccccc1n2C)OCC,3%
O=C(Cn1cnc2c(nnn2Cc2ccccc2)c1=O)c1ccccc1,14%
O=C(CSc1ccc(-c2ccco2)nn1)c1ccc(F)cc1,?
CN1CCC(=C(c2ccccc2)c2ccc(Br)cc2)CC1,-8%
Cc1cccc(OCC(=O)Nc2ccccc2C(=O)OCc2cc(=O)n3ccsc3n2)c1,14%
Cc1nnc(NCc2ccccc2)c2c1nnn2Cc1ccccc1Cl,3%
COc1ccccc1/C=C1/SC(=O)N(CCC(=O)Nc2ccc(S(=O)(=O)Nc3nccs3)cc2)C1=O,11%
O=C(c1ccco1)N1CCN(c2nc(C3CC3)nc3sc4c(c23)CCCC4)CC1,?
COc1ccccc1NC(=S)NC(=O)CC(C)C,1%
Cc1cccc(-n2ncc3c(NCCOCCO)ncnc32)c1,5%
CCOC(=O)c1ccc(Nc2c(-c3ccc(N(C)C)cc3)nc3nc[nH]n23)cc1,-6%
COc1ccccc1NC(=O)c1c(NCc2ccc(C)o2)sc2c1CCCCC2,?
CCOC(=O)Cc1nnc2c(Nc3ccc(Cl)cc3)nc3nonc3n12,6%
Cn1c(SCc2ccccc2)nnc1-c1ccco1,19%
COC(=O)Cc1[nH]n(-c2ccccc2)c(=O)c1C=Nc1ccc(C)cc1,-15%
O=C(NCC(=O)N(Cc1ccccc1)C(C(=O)NCC1CCCO1)c1ccccc1)c1cccs1 (stereo not drawn),-5%
CC(C#Cc1ccc2c(c1)COc1c3ccccc3nn1-2)OC(C)(C)C (stereo not drawn),9%
COc1ccc(S(=O)(=O)N2CCC(NC(=O)OCc3c(Cl)cccc3Cl)CC2)cc1,8%

# Some of these compounds in order of heavy-atom count, rising:
SMILES,VDR inhibitor
CN1CCC(=C(c2ccccc2)c2ccc(Br)cc2)CC1,-8%
Cc1cccc(-n2ncc3c(NCCOCCO)ncnc32)c1,5%
COc1ccccc1NC(=O)c1c(NCc2ccc(C)o2)sc2c1CCCCC2,?

# More entries follow:
SMILES,VDR inhibitor
COc1ccc(NC(=O)C(c2ccc(C)cc2)N(C)C(=O)CC2NC(=O)NC2=O)cc1 (stereo not drawn),-13%
O=C(NCc1cccc(Cl)c1)c1oc(=O)c2ccccc2c1-c1ccccc1,3%
CC(C)(CNC(=O)c1sc2cc(Cl)ccc2c1Cl)N1CCOCC1,-2%
COC(=O)c1cc2nc(-c3ccc(C)cc3)cc(C(F)(F)F)n2n1,-21%
O=C(NCc1ccncc1)c1c(F)c(F)c(F)c(F)c1F,33%[activator]
Cc1cc(C)cc(N(CC(=O)Nc2ccccc2-c2ccccc2)S(=O)(=O)c2ccccc2)c1,-22%
COc1ccc(-c2oc3ncn4nc(-c5ccccc5Br)nc4c3c2-c2ccc(OC)cc2)cc1,8%
O=C(O)c1cc(-c2ccc(Cl)c(Cl)c2)n(-c2ccccc2)n1,?
Cc1cc(C)cc(C(=O)NCC(=O)N2CCC(C(N)=O)CC2)c1,7%
CCn1c(=O)n(CCc2ccccc2)c(=O)c2c3c(sc21)CCCC3,10%
CC(C)(C)c1ccc(C(=O)C2CCCN(C(=O)c3ccccn3)C2)cc1 (stereo not drawn),?
O=C(NCc1ccco1)C1CCN(S(=O)(=O)c2ccc(-n3cnnn3)cc2)CC1,11%
Cc1nnc(Oc2ccc([N+](=O)[O-])cc2)c2ccccc12,-8%
O=C(NN1CCOCC1)c1cc(-c2ccc(Cl)c(Cl)c2)nc2ccccc12,6%
Cc1nc2ccc(NC(=O)NCc3ccco3)cc2s1,-11%
COc1cccc(C(=O)Nc2nc(-c3nnn(-c4ccccc4C(F)(F)F)c3C)ns2)c1,1%
Nc1ccccc1C(=O)Nc1ccc(Cl)cc1Cl,4%
O=C(Nc1cccc(O)c1)c1ccc(NC(=O)C2CCCO2)cc1 (stereo not drawn),0%
O=C(NNC(=O)c1ccc(-c2ccccc2)cc1)Nc1ccccc1,9%
COc1ccc(C(=O)NC(=S)N(C)C2CCCCC2)cc1Br,-21%
COCCCNC(=S)NNC(=O)c1cc(-c2cccnc2)nc2ccccc12,6%
O=C(O)CSc1c2c(nc3cc(C(=O)Nc4ccc(F)c(Cl)c4)ccc13)CCC2,-18%
O=C1c2ccccc2C(=O)N1CSc1nnc(Nc2ccccc2)s1,13%
O=C(NCCc1ccc(Cl)cc1)c1cc(-c2ccccn2)nc2ccccc12,-24%
Cc1ccc(-c2noc(CCC(=O)N3CCN(c4cc(C)ccc4C)CC3)n2)cc1,-24%
Oc1ccccc1CN1CCN(C(O)(c2ccccc2)c2ccccc2)CC1,?
Cc1ccc(NS(=O)(=O)c2ccc3c(c2)CCC(=O)N3)cc1,11%
Clc1ccc(CSc2ccc(-c3ccccn3)nn2)cc1,6%
COc1ccccc1NC(=O)c1ccc(NS(=O)(=O)c2cccc3cccnc23)cc1,-24%
COc1cccc(-c2nc(C(=O)NCCCN3CCOCC3)cc3c2[nH]c2ccccc23)c1,-6%
CCOC(=O)C(C)Sc1nc2c(c(=O)[nH]c(=O)n2C)n1C/C=C(/C)Cl (stereo not drawn),?
O=C(NNC(=O)c1cc(-c2ccc(Cl)c(Cl)c2)nc2ccccc12)Nc1ccccc1,6%
COc1ccc(NC(=O)Cc2c(SC)c3ccccc3n2Cc2ccccc2)cc1,-2%
S=C(c1ccc(-c2ccc(Br)cc2)o1)N1CCOCC1,?
Cc1ccc(CSC2=Nc3ccccc3C3=NC(CCC(=O)NCc4cccs4)C(=O)N23)cc1 (stereo not drawn),0%
COC(=O)CCCCNC(=O)Nc1ccccc1,4%
CC(c1ccccc1)C1CC(=O)N(c2cc(Cl)ccn2)C1=O (stereo not drawn),12%
CN1CCN(NC(=S)NC2CCCCC2)CC1,3%
NC(=O)Cn1nnc(-c2ccc(CN3CCCCC3)cc2)n1,2%
Cc1cc(C(C)(C)C)oc1C(=O)N(CC(=O)NC1CCCC1)Cc1ccccc1,13%
